From PubChem BioAssay
AID504770: E. coli YBA685 growth inhibition, screen for V. cholerae RctB inhibitors; 0.27% of 130,000 active; E. coli YBA685 rctB-dependent plasmid, OD600 growth, 3 h; stronger effect = lower value; AID 504770; z-score (concentration not given with the values);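 active = z-score under -2 on both plates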;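 also: wells of about 30 µL received 100 nL stock; score is relative to mean and SD of the test wells; the first replicate is given; strong numbers were not always called active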
CapD inh: inhibitors of Bacillus anthracis CapD enzyme; purified CapD enzyme, fluorescence intensity read-out; stronger effect = lower value; some hits fall short of the stated cut; z-score (no concentration beside the values); 0.23% of 140,000 active;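 active = z-score under -4 in either of two replicates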;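 also: stock transfer was 100 nL into about 40 µL; score is relative to mean and spread of the plate; one replicate is shown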
Numbers without * were called inactive; . = not tested or not shown.

entry | Molecule | AID504770 | CapD inh
1 | COc1cc(C2C(C#N)=C(N)OC3=C2C(=O)CC(C)(C)C3)ccc1OC(=O)c1cccs1 (centres undefined) | . | -0.04
2 | CC12c3ccccc3C(C=O)(c3ccccc31)C1C(=O)N(c3ccc(Cl)c(C(F)(F)F)c3)C(=O)C12 (centres undefined) | . | -0.19
3 | CN1c2ccccc2-c2ccccc2C12C=Cc1cc(Br)cc(Br)c1O2 (centres undefined) | . | -0.26
4 | COc1cccc2c1Oc1nc(-c3ccccc3)nc(SCC(=O)N(C)c3ccccc3)c1C2 | -0.2 | -0.03
5 | CCOC(=O)C1=NNC2C(=O)N(c3ccc(F)cc3)C(=O)C12 (centres undefined) | . | -0.59
6 | CC1=C(C(=O)OCc2ccco2)C(c2cc3c(cc2Br)OCO3)NC(=O)N1 (centres undefined) | . | -0.47
7 | C=C(C)CN=c1scc(-c2ccco2)n1/N=C/c1cccnc1 | 1.2 | .
8 | CCOC(=O)C1=C(O)/C(=C\c2cc(OC)c(OC)c(OC)c2)SC1=Nc1ccc(C)cc1 | . | -1
9 | O=c1c(-c2cc(Br)cc3c2OCOC3)coc2ccccc12 | 0.25 | 0.88
10 | O=C1Nc2ccccc2/C1=N/c1sc2c(c1C(=O)NCCc1ccccc1)CCCC2 | 3.2 | -0.34
11 | COc1ccc(NC2=NC(C)(CO)CS2)cc1 (centres undefined) | . | 0.22
12 | CCCc1nc2ccccc2c2c1C(=O)N(Cc1ccccc1OCC)C2=O | . | 0.42
13 | O=C(CN1CCN(c2cccc(Cl)c2)CC1)c1ccc(Cl)cc1 | -0.4 | 0.43
14 | Nc1nccc(-c2ccc(Sc3ccccc3)cc2)n1 | 0.35 | 7.2
15 | CCC(c1nnnn1Cc1ccccc1)N1CCN(c2cccc(C)c2C)CC1 (centres undefined) | 2.2 | .
16 | Cc1ccc(-n2c(SCC(=O)NC3CC3)nc3ccccc3c2=O)c(C)c1 | 0.05 | 0.35
17 | CN(C(=O)c1cccc(C#N)c1)c1nnc(C2CCOC2)s1 (centres undefined) | 1.4 | .
18 | Cc1ccc(-c2csc3nnc(C(F)(F)F)n23)cc1 | 0.4 | 0.91
19 | Cc1ccc(C)n1-c1ccc2ncsc2c1 | 0 | -0.27
20 | CCOC(=O)/C(C#N)=C1/C=CC(Cl)=NN1 | 2 | -0.4
21 | O=C(NC1CCN(Cc2ccccc2)CC1)c1ccc(-n2cccn2)cc1 | 0 | 0.93
22 | Cc1nc2ccccc2n1CC(=O)OCC(=O)C(C)(C)C | 0.15 | .
23 | COc1cc(C(=O)N2CCN(C3=NS(=O)(=O)c4ccccc43)CC2)cc(OC)c1OC | . | -0.19
24 | Cc1cc(C)nc(Sc2ccc(OC(C)C)cc2)n1 | . | -0.27
25 | O=S(=O)(NCc1ccccc1)c1cc(C(F)(F)F)cc(C(F)(F)F)c1 | . | -0.97
26 | Nc1ccc(SC(C(F)(F)F)(C(F)(F)F)C(F)(F)F)cc1 | -0.3 | .
27 | COc1ccc(N2CCN(S(=O)(=O)c3c(C)noc3/C=C/N3CCOCC3)CC2)cc1 | 0.5 | -2.3
28 | COc1ccccc1/C=C\C=C1\C(=O)N(c2cc(C)cc(C)c2)C(c2cccc([N+](=O)[O-])c2)S1(=O)=O (centres undefined) | . | -2.2
29 | COc1ccc(CCn2c(-c3ccc(C)c(C)c3)csc2=Nc2ccccc2)cc1 | . | -0.31
30 | Brc1ccc2ncnc(NCCN3CCOCC3)c2c1 | . | 0.045

Complete entries as entered above. Values in the order: AID504770, CapD inh
Cc1ccc(-c2csc3nnc(C(F)(F)F)n23)cc1 reads 0.4, 0.91
CCOC(=O)C1=C(O)/C(=C\c2cc(OC)c(OC)c(OC)c2)SC1=Nc1ccc(C)cc1 reads ., -1
Nc1ccc(SC(C(F)(F)F)(C(F)(F)F)C(F)(F)F)cc1 reads -0.3, .

Other structures:
entry | Molecule | AID504770 | CapD inh
31 | CCOC(=O)N1CCC(NCc2c(C(=O)O)c(C)n(Cc3cccc(C)c3)c2C)CC1 | 2 | -0.69
32 | CC1c2cc(O)c(O)cc2CCN1C(=O)c1ccccc1CC(=O)O (centres undefined) | . | 1
33 | CC1(C)CC(=O)C2=C(C1)OC1=C(C(=O)CC(C)(C)C1)C2c1cn[nH]c1-c1ccccc1 | . | -0.68
34 | COc1ccccc1Cn1c(=S)[nH]c2cc(C(=O)NCCN(C)C)ccc2c1=O | -0.2 | 1.4
35 | COc1cc2c(cc1OC)C(C(=O)Nc1ccccn1)C(c1cccnc1)N(C)C2=O (centres undefined) | -0.15 | 0.045
36 | COc1cc(C2OC(c3cc(C)ccc3[N+](=O)[O-])=NN2C(C)=O)cc(OC)c1OC (centres undefined) | . | -1.1
37 | CC(C)Nc1ncnc2sc3c(c12)CCCC3 | . | 0.005
38 | COc1cccc(N=Cc2ccccc2O)c1 | 2 | -0.18
39 | CSc1nc(N)nc(SCC(=O)Nc2ccc([N+](=O)[O-])cc2)c1C#N | . | -0.54
40 | CCOC(=O)N1CCc2c(sc(NC(=O)c3ccccc3)c2C#N)C1 | -0.05 | 2
41 | O=C(CSc1nnc(-c2c[nH]c3ccccc23)n1CC1CCCO1)c1ccc(Cl)s1 (centres undefined) | -0.5 | .
42 | Cc1ccc(S(=O)(=O)N(CCC#N)c2ccc(Br)cc2)cc1 | -0.05 | -0.66
43 | CC(=O)NC(O)C(=O)c1ccccc1 (centres undefined) | -0.7 | .
44 | Cn1c(=O)c2c(nc(NC3CCCCC3)n2Cc2ccc(Br)cc2)n(C)c1=O | . | 0.32
45 | CC(=O)/C=C1/c2ccccc2CC(C)(C)N1C | . | -0.03
46 | CC(C)(C#N)Nc1ccccc1 | -1.7 | .
47 | CC(=O)Oc1ccc(OC(C)=O)c(C2=C3C(=O)N(CCc4c[nH]c5ccccc45)CC(=O)N3CCC2)c1 | 0.3 | -0.15
48 | COC(=O)c1ccc(OCCOc2ccc(C(=O)OC)cc2)cc1 | 0.65 | -0.32
49 | CCOC(=O)c1c(-c2ccccc2)oc2cc(Br)c(OC(C)C(=O)OC)cc12 (centres undefined) | . | 1.5
50 | Cc1cc(F)ccc1S(=O)(=O)NCC1CC2CCC1C2 (centres undefined) | 0.15 | 55
51 | Cc1ccc(-n2cc(-c3ccccc3)nc2SCC(=O)NCCc2ccccc2)cc1 | 0.2 | 0.035
52 | CC(=O)Oc1ccc(-n2c(C)cc(/C=C3\C(=O)NC(=S)N(c4ccc(C)cc4)C3=O)c2C)cc1 | . | -0.56
53 | NN/C(=N\S(=O)(=O)c1ccccc1)NNc1ccccc1 | 2.2 | -0.77
54 | O=C1c2cccc3c([N+](=O)[O-])ccc(c23)C(=O)N1Cc1cccnc1 | . | -0.045
55 | N#C/C(=C\c1cccnc1)c1cccc(C(F)(F)F)c1 | 1.9 | 0.14
56 | CCN(CC)CCN=Cc1c(O)n(-c2ccccc2C)c(=O)[nH]c1=O | 2.2 | -1.2
57 | CCOC(=O)c1ccc(NC(=O)CCCN2C(=O)/C(=C/c3ccc(OC)cc3)SC2=S)cc1 | . | 0.14
58 | CCc1cc2c(N3CCN(CC)CC3)nc(C)nc2s1 | -1.5 | .
59 | C1CCC(Nc2nc(N3CCOCC3)nc(N3CCOCC3)n2)CC1 | 0.05 | .
60 | COc1ccc(C(=O)N/N=C2/SCC(=O)N2C)c(OC)c1 | -0.1 | .

Pulled by compound from the entries so far, two records:
entry | Molecule | AID504770 | CapD inh
57 | CCOC(=O)c1ccc(NC(=O)CCCN2C(=O)/C(=C/c3ccc(OC)cc3)SC2=S)cc1 | . | 0.14
54 | O=C1c2cccc3c([N+](=O)[O-])ccc(c23)C(=O)N1Cc1cccnc1 | . | -0.045

Next section
entry | Molecule | AID504770 | CapD inh
61 | CCOC(=O)c1c(CN2CCN(C)CC2)n(-c2ccccc2)c2ccc(O)cc12 | 0.3 | 1.4
62 | O=S(=O)(c1ccccc1)N1CN2CCN(C2)C1 | -1.2 | 0.14
63 | Cc1ccc(S(=O)(=O)CCN(CCS(=O)(=O)c2ccc(C)cc2)c2ncccn2)cc1 | . | 0.06
64 | Cc1ccc(-c2nn(-c3ccccc3)cc2C2CC(c3cccs3)=NN2C(=O)CCCC(=O)O)cc1 (centres undefined) | . | 53
65 | COc1ccc(CNC(=O)CCSCc2ccccc2C)cc1 | -1.2 | -0.46
66 | COc1ccc(Nc2cc(C)c3ccccc3n2)cc1 | -0.15 | .
67 | c1cnc(SCc2csc(-c3ccc4c(c3)OCO4)n2)nc1 | 0.25 | 131
68 | OC1CCCN(C2CCN(CCc3ccccc3)CC2)C1 (centres undefined) | 0 | 0.15
69 | CN(C)CCOC(=O)NC1CC(=O)N(c2ccc(F)cc2)C1 (centres undefined) | 0.25 | .
70 | O=C(O)c1ccc2ccccc2c1Br | 0.6 | -0.23
71 | COc1ccc(-c2c(C#N)c(N)nc(OC)c2C#N)cc1 | 0.1 | .
72 | Cc1ccc(S(=O)(=O)N2C(=O)CCC2C(=O)N(Cc2nc(-c3ccccc3)no2)C(C)C)cc1 (centres undefined) | -0.3 | -1.7
73 | CCOC(=O)C1=C(C)N=c2s/c(=C\c3cccc(OC)c3OC)c(=O)n2C1c1ccc(OC)c(OC)c1 (centres undefined) | . | -0.23
74 | Cc1onc(-c2ccccc2)c1C(=O)O | -0.35 | -0.26
75 | Cc1ccc(O)c(CCc2ccc(O)cc2)n1 | -0.55 | 15
76 | COc1ccc(C2=NN(C(=O)CCCC(=O)O)C(c3ccc(F)cc3)C2)cc1OC (centres undefined) | . | 31
77 | Nc1nc(C(F)(F)F)cc(=O)[nH]1 | . | -0.74
78 | COc1ccc(-c2nn(CN3CCOCC3)c(=S)n2C2CCCCC2)cc1 | -0.95 | .
79 | O=C(CCSCc1ccccc1Cl)NC1CCCCC1 | -0.3 | 0.21
80 | NC(=O)c1ccc(CN2CCOCC2)cc1 | -0.3 | 0.095
81 | COc1cc(CO)c(-c2c[nH][nH]c2=O)cc1OC | . | 0.28
82 | S=c1n(CN2CCC(Cc3ccccc3)CC2)nc(-c2ccccc2Cl)n1-c1ccccc1 | . | -0.55
83 | CC(=O)Nc1nnc(-c2c(-c3c(Cl)cccc3Cl)noc2C)o1 | 1.7 | -0.56
84 | CN1CCN(C(=O)c2cn(-c3ccccc3)nc2-c2cccnc2)CC1 | 0.25 | 0.29
85 | Cc1cc2ncn(CN3CCN(c4ccc(C(F)(F)F)cn4)CC3)c2cc1C | -0.15 | .
86 | COc1ccc(CCNC2CC(=O)N(CCc3ccc(OC)c(OC)c3)C2=O)cc1 (centres undefined) | 0 | 0.15
87 | NC(=O)c1sccc1NC(=O)C(F)(F)F | 2.1 | -0.41
88 | COc1ccc2c(C=Nc3ccccc3)c(O)n(C)c(=O)c2c1 | -0.2 | 0.07
89 | CCOC(=O)C1=C(C)NC(=O)c2c(ccc(OC)c2OC)C1O (centres undefined) | 0.1 | -1
90 | COc1ccc(NC(C)=O)c(NC(=O)c2ccc(Cl)cc2Cl)c1 | -0.85 | -0.83
91 | O=c1c2ccccc2cnn1Cc1cccc(Br)c1 | -0.15 | 0.56
92 | CCOc1ccccc1C(=O)NCc1ccc2[nH]c(C)cc2c1 | -0.05 | 0.21
93 | CCN(CC)S(=O)(=O)c1ccc(Cc2ccc(S(=O)(=O)N(CC)CC)cc2)cc1 | 0.05 | 3.6
94 | COc1ccc(C(O)(CCc2ccccc2)C(CN2CCCCC2)c2ccccc2)cc1 (centres undefined) | 1.2 | 1.2
95 | O=C(Nc1ccc(-c2nc3ccccc3o2)cc1)c1ccc(Cl)cc1Cl | . | 94
96 | Brc1ccc2ncnc(-c3ccccc3)c2c1 | -0.4 | -0.16
97 | CCc1ccc(C2N=C3Oc4ccccc4C=C3C(=O)N2)cc1 (centres undefined) | -0.3 | 1.1
98 | CCOC(=O)C1CCN(C(=O)CSc2ccc(Br)cc2)CC1 | -1.6 | .
99 | CC(=O)Oc1ccc(Cl)cc1C1OC(c2nc3nc(C)cc(C)n3n2)=NN1C(C)=O (centres undefined) | -0.95 | 16
100 | O=S(=O)(NCc1ccsc1)c1ccc(N2CCOCC2)nc1 | 0.2 | 2.4
101 | Nc1ccc(CN2CCCCCC2)cc1 | 2.9 | -0.14
102 | CCCN1CC=C2C(C#N)(C#N)C(N)=C(C#N)C(c3ccc(OCC(N)=O)cc3)C2(C)C1 (centres undefined) | -1.1 | 36
103 | CCCCNS(=O)(=O)c1ccc(Cl)cc1 | -0.55 | .
104 | CCn1c(SC(C)C(=O)NCc2ccc(OC)cc2)nc2ccccc21 (centres undefined) | -0.3 | .
105 | O=C(/C=C/c1ccccc1)Nc1nnc(/N=C/c2ccc(Br)s2)s1 | 1.4 | -0.74
106 | O=C1CC(=O)N(Cc2ccccc2)C(=O)N1 | -0.5 | 2.4
107 | Brc1ccc(-c2csc(NN=C3CCCC3)n2)cc1 | -0.3 | .
108 | NNC(=O)COc1cccc(C(F)(F)F)c1 | -0.25 | .
109 | FC(F)(F)c1nc(=S)c2ccccc2[nH]1 | -0.35 | .
110 | O=C(N/N=C/c1ccccc1Sc1ccc(Cl)cc1)c1ccc2ccccc2c1 | . | -0.87
111 | CCOC(=O)Cc1ncccc1C(=O)Nc1ccc(OC(F)(F)F)cc1 | . | -0.95
112 | COc1ccccc1Oc1ccc(C(F)(F)F)cc1N | 0.05 | 0.07
113 | CC(C)C(=O)N1N=C(c2cccc(NS(C)(=O)=O)c2)CC1c1ccccc1 (centres undefined) | 0.55 | .
114 | Nc1cccc(C(=O)NC2CC2)c1 | -0.4 | .
115 | Cc1cccc(Oc2nc(-c3ccccc3)cc(C)c2S(C)(=O)=O)c1C | . | 0.25
116 | O=C(COC(=O)Cc1ccccc1)Nc1ncc(Cl)cc1Cl | 2.3 | -1.3
117 | COc1ccc(C(=O)n2c(=O)oc3ccc(Cl)cc32)cc1 | 0.1 | .

A draw from above in order of formula weight, rising:
entry | Molecule | AID504770 | CapD inh
22 | Cc1nc2ccccc2n1CC(=O)OCC(=O)C(C)(C)C | 0.15 | .
39 | CSc1nc(N)nc(SCC(=O)Nc2ccc([N+](=O)[O-])cc2)c1C#N | . | -0.54
85 | Cc1cc2ncn(CN3CCN(c4ccc(C(F)(F)F)cn4)CC3)c2cc1C | -0.15 | .
51 | Cc1ccc(-n2cc(-c3ccccc3)nc2SCC(=O)NCCc2ccccc2)cc1 | 0.2 | 0.035
